Source: PubChem BioAssay
Cruzain inh noDet = cruzain (T. cruzi) inhibition without detergent; purified cruzain, Z-FR-AMC fluorescence, no detergent; Potency, µM, without a hit: max response, negative = inhibition, hits mostly inhibitors; 200,000 tested, 2.3% active; P25779; active = well fitted curve in the direction sought with a large enough effect; inconclusive = small, poorly fitted or top-dose-only effect, or another doubt; inactive = no such curve, though single readings can be large; an effect the other way counts as inactive or inconclusive;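 also: plate controls were enzyme without inhibitor for no effect and buffer without enzyme for full effect; nearly all actives have a fitted effect of over 40% in size; top concentration of the series not given in the record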
Target sequence (P25779 123-467 limits assumed): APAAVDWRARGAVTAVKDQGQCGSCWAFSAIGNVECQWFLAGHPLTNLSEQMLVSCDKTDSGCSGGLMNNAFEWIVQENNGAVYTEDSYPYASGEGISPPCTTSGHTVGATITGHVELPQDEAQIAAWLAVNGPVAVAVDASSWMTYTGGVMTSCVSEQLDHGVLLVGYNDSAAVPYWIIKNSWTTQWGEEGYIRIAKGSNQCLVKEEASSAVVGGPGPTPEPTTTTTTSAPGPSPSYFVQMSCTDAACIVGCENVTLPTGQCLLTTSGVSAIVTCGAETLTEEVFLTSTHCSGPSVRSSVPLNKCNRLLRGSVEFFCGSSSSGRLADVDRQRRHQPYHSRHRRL
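Detergent-free condition (0.00005% Triton X-100) in acetate buffer pH 5.5 with DTT. 1.5 nM enzyme and compound were pre-mixed 15 min, then 2 uM Z-FR-AMC substrate added; reaction progress from fluorescence change between first and third reads (60 s).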
RE007 growth inh = less growth of the S. pombe RE007 Vpr strain; S. pombe RE007 Vpr strain, BacTiter-Glo ATP luminescence, 24 h; control for the full effect not named in the record; Potency, µM (highest dose often 92.2 µM), for the others: at the top dose activity change, negative = less growth; 360,000 tested, 0.21% active; active = well fitted falling curve with a large enough effect; inconclusive = small, poorly fitted or top-dose-only effect; inactive = no such curve, though single readings can be large or run the other way;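 also: % is scaled to controls: 0 for no effect and ±100 for the full control effect; nearly all actives have a fitted effect of over 50% in size; the assay follows cell death caused by Vpr and the record does not say whether a fall means rescue or toxicity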
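Fission yeast strain RE007, carrying one chromosomally integrated HIV-1 vpr copy, was seeded at OD 0.01 in PMG+AL medium with 23 nL pinned compound. After 24 h at 30 °C and 99% humidity, viability was read by BacTiter-Glo luminescence.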
SARS PLP yeast = inhibitors of SARS-CoV papain-like protease in yeast | S. cerevisiae expressing SARS-CoV PLpro, growth rescue; control for the full effect not named in the record | AID 485353 | Potency, µM (doses to about 32.9 µM), for inactives: at the highest dose activity, positive = growth rescue | 330,000 tested, 0.19% active; also: 0% is about no effect; nearly all actives have a fitted effect of over 55% in size; growth read by luminescence after 48 h
NS1 function inh = inhibitors of influenza NS1 protein function; S. cerevisiae slowed by influenza A NS1, growth recovery by OD600; Potency, µM (titrated, usually from 46.1 µM), inactives show at the highest dose activity, positive = more growth; 270,000 tested, 0.4% active; also: actives are rising curves; nearly all actives have a fitted effect of over 50% in size
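OD600 was taken as the measure of yeast growth restored by compound in an NS1-expressing S. cerevisiae strain. Cells had been washed out of glucose medium and diluted 1:100 into galactose -URA medium, pH 6.0.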
2A StopGo = lowers the luciferase signal of an FMDV 2A StopGo reporter; Potency, µM (titrated, usually from 57.9 µM), for the others: at the highest dose signal change, negative = less light; human cells with a luciferase reporter of 2A StopGo recoding; control for the full effect not named in the record; 410,000 tested, 1.2% active; AID 1159524; active = well fitted falling curve with a large enough effect; inconclusive = small, poorly fitted or top-dose-only effect; inactive = no such curve, though single readings can be large or run the other way; tested in HEK293T cells; also: % is scaled to controls: 0 for no effect and ±100 for the full control effect; nearly all actives have a fitted effect of over 45% in size; luciferase light after 4 h
Cruzain inh Det = blocks cruzain activity in presence of Triton detergent; Potency, µM, for inactives: max response, negative = inhibition, hits mostly inhibitors; 200,000 tested, 0.43% active; purified cruzain, Z-FR-AMC fluorescence, 0.01% Triton; P25779; AID 1478; active = well fitted curve in the direction sought with a large enough effect; inconclusive = small, poorly fitted or top-dose-only effect, or another doubt; inactive = no such curve, though single readings can be large; an effect the other way counts as inactive or inconclusive;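 also: plate controls were neutral wells for no effect and buffer without enzyme for full effect; nearly all actives have a fitted effect of over 40% in size; top concentration of the series not given in the record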
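15 min RT preincubation of 1.5 nM cruzain with compound, then 2 uM Z-FR-AMC added; kinetic AMC fluorescence, 60 s delta. Triton X-100 0.01%, pH 5.5.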
LASV entry inh = Lassa virus entry inhibition | Lassa virus pseudotype entry inhibition, cell reporter; control for the full effect not named in the record | Potency, µM (doses to about 37.9 µM), without a hit: at the top dose activity change, negative = inhibition, most hits filed as inhibitors | 300,000 tested, 1.2% active | AID 540256; active means well fitted inhibition curve with a large enough effect; inconclusive means small, poorly fitted or top-dose-only effect, or effect the other way; inactive means flat fitted curve, though single readings scatter; tested in HEK293 cells; also: % is scaled to controls: 0 for no effect and ±100 for the full control effect; nearly all actives have a fitted effect of over 50% in size; luciferase read-out
Marburg entry inh = Marburg virus entry inhibition. 300,000 tested, 1.8% active. Potency, µM (titrated, usually from 37.8 µM), for the others: at the top dose activity change, negative = inhibition, actives largely listed as inhibitors. AID 540276. Marburg virus pseudotyped entry inhibition, cell reporter; control for the full effect not named in the record; about a third of the inactives were read at about 46 µM; active = well fitted inhibition curve with a large enough effect; inconclusive = small, poorly fitted or top-dose-only effect, or effect the other way; inactive = flat fitted curve, though single readings scatter; tested in HEK293 cells; about a fifth of its hits are not listed in these tables; also: % is scaled to controls: 0 for no effect and ±100 for the full control effect; luciferase read-out
* = called active by the depositor; ? = inconclusive; nt = no result given; [ ] = another dose, or the depositor's remark. Unless noted, calls follow the shape of the dose curve; as a rule, active means well fitted rising curve with a large enough effect; inconclusive means small, poorly fitted or top-dose-only effect; inactive means no such curve, though single readings can be large or run the other way. Potency is read from the fitted curve at half-maximal effect.

SMILES | Cruzain inh noDet | RE007 growth inh | SARS PLP yeast | NS1 function inh | 2A StopGo | Cruzain inh Det | LASV entry inh | Marburg entry inh
C[C@H](O)CC1=C[C@H](O)[C@@H](C)OC1=O | nt | 27% | 1% | 2% | -26% | nt | nt | nt
OC1CN=C2CCCc3c2n(c2ccc(Cl)cc32)C1 (stereo unspecified) | ? | -4% | -3% | -5% | -21% | -20% | 1% | -6%
NCCOc1ccccc1-c1ccccc1 | 10% | -15% | 1% | -7% | -6% | 1.0% | -20% | -13%
O=C(CCc1nc(CN2CCN(S(=O)(=O)c3ccc(Cl)cc3)CC2)no1)N1CCCCC1 | ? | nt | nt | nt | 3% | 0.2% | 5%[46.1 µM] | nt
CC(C)(C)OC(=O)NCCCCCc1nnc(SCc2ccccc2)o1 | nt | 6% | -1% | -39% | ? | nt | ? | ?
COc1ccc(Nc2nc(N3CCN(C)CC3)nc3ccccc23)c(OC)c1 | nt | 4% | 0% | 2% | -16% | nt | nt | nt
Cc1ccc(/C=C/C2=NN(C)C(=O)CC2)cc1 | nt | -23% | -3% | nt | 23% | nt | 2% | ?
COc1ccc(NC(=S)NC(NC(=O)CCl)C(Cl)(Cl)Cl)c([N+](=O)[O-])c1 (stereo unspecified) | nt | -3% | 0% | -4% | -30% | nt | nt | nt
Cc1ccc(CNCC2CCCO2)o1 (stereo unspecified) | -7% | 12% | -2% | -3% | -9% | 2.8% | 7% | 21%
CCOC(=O)c1ccc(NC(=S)N2CCSC2c2ccc(Br)cc2)cc1 (stereo unspecified) | -19% | -1% | -25% | -4% | 2% | -3.4% | 5% | 7%
COc1ccc(-c2cn3c(C)c(C(=O)NC(C)C)sc3n2)cc1 | 4% | -5% | 7% | 0% | 19% | 2.4% | 0% | 9%
COc1ccccc1C(=O)NC(=O)CSc1nc2nc(C)cc(C)n2n1 | nt | 7% | 3% | nt | -2% | nt | -17% | -1%
CN(Cc1ccccc1)C(=O)NC1CCCCC1 | 2% | 11% | 1% | -2% | 14% | 9.8% | 11% | -12%
Cc1c(C)c(C)c(CO/N=C/c2cccs2)c(C)c1C | nt | 1% | -1% | -8% | 0% | nt | -2% | ?
CCn1c(SCC(=O)N2CCOCC2)nc2oc3c(Cl)cc(Cl)cc3c(=O)c2c1=O | -14% | nt | 0% | ? | nt | -12% | nt | 3%
CC(C)(C)c1ccc(CCC(CC(=O)O)CC(=O)O)cc1 | nt | 19% | -1% | 10% | 5% | nt | 6% | 3%
COc1cccc(-c2cc(-c3cccnc3)nc(N)c2C#N)c1 | nt | 7% | 1% | 9% | -6% | nt | nt | nt
C=CCn1c(NC(=O)c2ccco2)nc2ccccc21 | nt | -9% | 3% | -39% | -5% | nt | -28%[46.1 µM] | ?
CCOc1ccc(CNCc2c(C(=O)O)c(C)n(Cc3ccc(C)cc3)c2C)cc1 | 0% | nt | nt | nt | 0% | -3.7% | -18%[46.1 µM] | 3%[46.1 µM]
O=[N+]([O-])c1ccc(-c2nc(NCc3ccccc3)c3ccccc3n2)cc1 | 11% | 3% | -1% | 1% | ? | -1.6% | -14% | ?
COc1nn(CC(=O)N2N=C(C(F)F)CC2(O)C(F)F)cc1[N+](=O)[O-] (stereo unspecified) | ? | 7% | -15% | -2% | -18% | 0.2% | 4% | 1%
COc1ccc(-c2cc(C(F)(F)F)nc(SCC(=O)NCCN3CCOCC3)n2)cc1OC | -1% | -10% | -24% | -1% | 0% | -9.5% | -9% | 1%
Cc1ccc(C2OC3=C(C(=O)CC(C)(C)C3)C(N)=C2C#N)o1 (stereo unspecified) | nt | 7% | 8% | nt | -22% | nt | 5% | 12%
O=C(c1sc2ccccc2c1Cl)N(Cc1cccs1)C1CCS(=O)(=O)C1 (stereo unspecified) | -6% | 10% | -5% | 1% | -21% | -7.1% | nt | nt
COC(=O)c1[nH]c2cc(OC)ccc2c1NC(=O)CCN1CCN(c2cccc(C)c2C)CC1 | 12% | 5% | -1% | -71% | 40µM* | -3.2% | ? | ?

The listing continues:
SMILES | Cruzain inh noDet | RE007 growth inh | SARS PLP yeast | NS1 function inh | 2A StopGo | Cruzain inh Det | LASV entry inh | Marburg entry inh
CCCN1CCC(=O)N([C@H](CSc2ccccc2)CC(C)C)CC1 | nt | 0% | 5% | -5% | 69%[activator] | nt | nt | nt
COc1ccccc1N1CCN(C2CCN(S(=O)(=O)c3ccc4ccccc4c3)CC2)CC1 | -10% | -13% | 3% | -6% | ? | -1.3% | ? | ?
Cc1ccc(S(=O)(=O)NCc2cn3ccccc3n2)c(C)c1 | nt | -6% | -2% | -2% | -18% | nt | nt | nt
Brc1ccc(-c2nnc3sc(CN4CCC5(CC4)OCCO5)cn23)cc1 | 17% | -7% | 11% | -16% | 14% | 1.3% | -1% | -1%
C/C(=N\NC(=O)c1ccn(C)n1)c1ccc(NC(=O)C2CCC2)cc1 | nt | 13% | ? | -8% | ? | nt | nt | nt
Cc1cccc(C(C(=O)NC2CCCCC2)N(Cc2cccnc2)C(=O)c2csnn2)c1 (stereo unspecified) | nt | 18% | 1% | 7% | 5% | nt | ? | 4%[46.1 µM]
C=CCn1c(SCC(=O)NCCc2ccccc2)nnc1C(C)NC(=O)c1cccs1 (stereo unspecified) | -3% | 12% | 8% | -2% | -11% | 0.0% | -12% | -1%
Cc1ccc(OCCn2cc(C(=O)c3ccco3)c3ccccc32)cc1C | -15% | nt | nt | nt | -21% | -9.7% | ? | -16%[46.1 µM]
COc1ccc(N2CC(O)=C(c3n(C)c4ccccc4[n+]3C)C2=N)cc1 | -8% | -7% | 13% | -3% | -5% | -1.5% | 1% | 3%
O=C(Nc1ccccc1F)c1cccc(C(=O)Nc2ccccc2F)c1 | nt | 7% | 0% | 4% | 4% | nt | 19%[46.1 µM] | ?
FC(F)(F)c1cc(-c2ccccc2)nc(NC2CCCC2)n1 | -6% | -18% | -6% | 3% | -3% | -0.6% | -5% | ?
COC(=O)Nc1ccc(S(=O)(=O)Nc2ncccn2)cc1 | nt | -3% | 1% | 3% | -15% | nt | 14% | 15%
CCCCCc1nc2ccccc2c(=O)n1-c1ccc(Cl)cc1[N+](=O)[O-] | 0% | 7% | -5% | 2% | -11% | 2.4% | 5% | 3%
NNC(=O)CN1C(CN2CCOCC2)=Nc2ccc(Br)cc2C1c1ccccc1 (stereo unspecified) | nt | 13% | 1% | 7% | -5% | nt | -4%[46.1 µM] | ?
COC(=O)/C=C1\S/C(=N/NC(=O)c2ccc(OC)cc2)NC1=O | nt | -2% | -1% | nt | 8% | nt | -7% | 14%[46.1 µM]
O=C(c1ccc(F)cc1)N1CCCCC(S(=O)(=O)c2ccccc2)C1=O (stereo unspecified) | 0% | -6% | 7% | 0% | -11% | 0.0% | 5% | 2%
Cc1ccc(S(=O)(=O)N2CCN(C(=O)C3CC3C)CC2)c(C)c1 (stereo unspecified) | nt | 2% | 3% | nt | -18% | nt | 4% | -16%
CC(C)OC(=O)CC12CN3CN(C1)CC(CC(=O)OC(C)C)(C3)C2=O | 17% | 2% | 16% | -1% | -9% | 0.0% | ? | 7%
O=C(CN1C(=O)COc2ccccc21)N(Cc1ccccc1)Cc1ccccn1 | -5% | 10% | 13% | -9% | -20% | -1.8% | 4% | 4%
O=C(C1CCC1)N1CCN(S(=O)(=O)c2ccc(F)cc2)CC1 | nt | -17% | 2% | nt | -17% | nt | -1% | 17%
O=C(c1cccc2ccccc12)C1CCCN(Cc2ccon2)C1 (stereo unspecified) | nt | -17% | -1% | -13% | -8% | nt | -28% | -4%[46.1 µM]
Cc1cccc(N2CCN(CCCNC(=O)c3sc4ncccc4c3-n3cccc3)CC2C)c1 (stereo unspecified) | 14% | nt | nt | nt | ? | 0.3% | 9%[46.1 µM] | nt
COCCn1c(=NC(=O)/C=C/c2ccccc2)sc2cc(NC(C)=O)ccc21 | -2% | 2% | 15% | -4% | -19% | -6.4% | 1% | ?
CC1=C(c2ccc(C)c(C)c2)S(=O)(=O)N=C1N1CCC(C(=O)NC(C)Cc2ccco2)CC1 (stereo unspecified) | ? | nt | nt | nt | -7% | -2.3% | nt | 4%[46.1 µM]
CCN(CC)CCN(C)C(=O)CCc1nnc(-c2ccc(C)s2)o1 | nt | 4% | 0% | 12% | 6% | nt | ? | 14%[46.1 µM]

More entries
SMILES | Cruzain inh noDet | RE007 growth inh | SARS PLP yeast | NS1 function inh | 2A StopGo | Cruzain inh Det | LASV entry inh | Marburg entry inh
CCN(CC)S(=O)(=O)N1CCC(C(=O)NCc2ccc(C)cc2)CC1 | -2% | 13% | 16% | -24% | 5% | 1.0% | 1% | 14%
O=C(COc1ccc(C(=S)N2CCCC2)cc1)Nc1ccc(F)cc1 | nt | 8% | -4% | -11% | -6% | nt | ? | -23%
Cc1ccc2[nH]cc(C(=O)NCc3cccs3)c(=O)c2c1 | -3% | -14% | 5% | 6%[9.22 µM] | nt | -3.1% | ? | -19%
O=C1CCC(C(=O)NC2(C(=O)NC3CCCCC3)CCCCC2)N1 (stereo unspecified) | -8% | -1% | 9% | -2% | -13% | 5.3% | -21% | 17%[46.1 µM]
O=C(Nc1ccc(N2CCOCC2)nc1)c1cccs1 | nt | 1% | 3% | nt | 61%[activator] | nt | 2% | 13%
COc1ccc(NC(=O)CNC(=O)Cn2cnc3sc4c(c3c2=O)CCCC4)cc1OC | nt | 4% | -1% | -1% | -2% | nt | nt | nt
Cc1ccc(OCC(=O)OCC(=O)Nc2ccc3c(c2)OCO3)cc1C | nt | -14% | -2% | nt | -19% | nt | 1% | 6%
Cc1ccc(S(=O)(=O)N2CC=C(C(=O)NC3CC3)CC2)cc1 | nt | -4% | 2% | 2% | 6% | nt | nt | nt
COc1ccc(CNC(=O)c2cc3c(=O)n4cccc(C)c4nc3n(CC3CCCO3)c2=N)cc1 (stereo unspecified) | nt | -10% | 0% | 8% | -23% | nt | nt | nt
Cc1nn(CCC(=O)NCc2cccc(Br)c2)c(=O)c2nn(-c3ccccc3)c(C)c12 | 1% | nt | nt | nt | -9% | -4.3% | ? | nt
Cc1ccc2cc(CCNC(=O)C3CCCC3)c(=O)[nH]c2c1 | 1% | 2% | -6% | -89% | 14% | -4.8% | nt | nt
